NPYLR7 agonist – mosquito NPYLR7 agonism | HEK293T NPYLR7/Galpha15, GCaMP6s calcium fluorescence | activation, % at 10 µM | actives 0.15% (n = 270,000); in the data active = activation above about 40%;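 note: 0% = vehicle and 100% = reference agonist at the receptor; some compounds past the cut are filed as inactive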
NPYLR7 agonist max-min – further read-out of NPYLR7 agonist, marked with its call; activation, %; measured here: Max-Min RFU normalised activation; some inactives read as strong as hits;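 span of the calcium signal over five minutes; 0% = vehicle and 100% = native peptide agonist; compound fluorescence can raise it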
An asterisk follows results filed as active; & = joins results of further samples.

SMILES | NPYLR7 agonist | NPYLR7 agonist max-min
COc1cc(Cn2nc(C3CC3)c3cnn(-c4ccccc4)c3c2=O)cc(OC)c1 | 10 | 6
CCc1ccc(-c2ccc(SCC(=O)N3CCOCC3)nn2)cc1 | 0 | -1
COc1ccc(OC2CCN(C(C)=O)CC2)c(C(=O)NCCCSC)c1 | 1 | -9
c1ccc(Cn2c(-c3cccnc3)cc3cnc(Nc4ccc5c(c4)OCO5)cc32)cc1 | 8 | 10
CCc1cc(CN2CCC3(CCCO3)CCC2=O)on1 (centres undefined) | 7 | 2
OCCNc1nc(Oc2ccc(Br)cc2)nc2ccccc12 | 2 | 3
C=C/C(C)=C/[C@@]1(C)SC(=O)C(C)C1=O (some centres undefined) | 3 | -40
CCCn1c(=O)c(C(=O)NCc2ccco2)nn(-c2ccc(OC)c(OC)c2)c1=O | 22 | 25
C=CCCC(O)CN(Cc1c(C)nn(-c2ccccc2)c1Oc1ccc(C)cc1)CC1CCCO1 (centres undefined) | -18 | -13
COc1ccccc1-c1noc2nc(OCc3cccc(N(C)C)c3)ccc12 | -3 | -5
Cc1nc2sc(C(=O)NCc3ccccc3F)c(C)c2c(=O)[nH]1 | 1 | 2
CCN(CC)S(=O)(=O)c1ccc2oc(=S)n(CN3CCCC(CO)C3)c2c1 (centres undefined) | 2 | 1
CCOC(=O)c1cnn(-c2nc(-c3ccc(OC)cc3)cs2)c1CNC1CCOC(C)(C)C1 (centres undefined) | 20 | 13
C[C@H]1OC(n2cc(F)c(=O)[nH]c2=O)C(O)[C@@H]1O (some centres undefined) | -3 | 1
CCOC(=O)[C@@H]1CSC2(CCN(C(=O)C3(c4ccccc4)CC3)CC2)N1 | 0 | 20

Record cards, from the list above.
Shown for CCOC(=O)c1cnn(-c2nc(-c3ccc(OC)cc3)cs2)c1CNC1CCOC(C)(C)C1 (centres undefined) = NPYLR7 agonist: 20; NPYLR7 agonist max-min: 13
Shown for CCc1cc(CN2CCC3(CCCO3)CCC2=O)on1 (centres undefined) = NPYLR7 agonist: 7; NPYLR7 agonist max-min: 2
Shown for CCN(CC)S(=O)(=O)c1ccc2oc(=S)n(CN3CCCC(CO)C3)c2c1 (centres undefined) = NPYLR7 agonist: 2; NPYLR7 agonist max-min: 1

(further entries)
SMILES | NPYLR7 agonist | NPYLR7 agonist max-min
O=C(NCCc1ccc(O)c(O)c1)C12CC3CC(CC(C3)C1)C2 | -21 | -32
CN1CC2(CCCN(C(=O)c3ccc(Cn4cccn4)o3)CC2)OC1=O (centres undefined) | 16 | 13
O=C(CNc1ccc(Br)c(C(F)(F)F)c1)NC(=O)NC1CC1 | 5 | 4
COCCCN(CC(=O)N(Cc1cccn1Cc1ccc(Br)cc1)C1CCCCC1)C(=O)CCc1ccccc1 | 1 | 14
Cc1ccc(-n2c(SCc3ccccc3)nnc2C(Cc2ccccc2)NC(=O)Nc2ccc(Cl)cc2)cc1 (centres undefined) | -1 | 2
Cc1c(C(=O)NCc2ccc3c(c2)OCCO3)sc(=O)n1Cc1ccccc1 | 11 | 7
CCn1c(C2CCNCC2)nn(Cc2ccc3c(c2)OCO3)c1=O | 11 | 6
O=C(NCCc1c[nH]c2ccccc12)c1ccccc1C(=O)c1ccc(Cl)cc1 | -15 | -20
COc1cc(-c2cc(C(=O)NCc3cc(C(F)(F)F)ccc3F)c3ccccc3n2)cc(OC)c1OC | 23 | 11
CC1CCC(NC(=O)C2(c3ccccc3)CC2)CC1 (centres undefined) | 5 | 1
COC(=O)c1ccc(CSc2ncc(CO)n2CC(=O)NCc2ccc(C)cc2)cc1 | 10 | 5
Cc1ncc(-c2c(-c3ccccc3)ncn2CCCCc2ccccn2)[nH]1 | 13 | 8
O=C(Nc1ccc(Cl)c(-c2nc3ccccc3o2)c1)c1ccc(Cl)c(Cl)c1 | 26 | 26
CC1(C)N=C(N)N=C(N)N1c1ccccc1 | 2&11 | 8&21
COc1ccc(CCNC(=O)Cn2cnc([N+](=O)[O-])n2)cc1OC | -9 | -11
Cc1ccc(-n2c(C)ccc2C)c(C(=O)NC2CCN(S(C)(=O)=O)CC2)c1 | 1 | 1
CC(C)(C)C1CCC(NC(=O)c2cccnc2Oc2cccc([N+](=O)[O-])c2)CC1 (centres undefined) | 8 | 3
CCOCCCN(Cc1nc(C(=O)OCC)cs1)C(=O)Nc1ccc(OC)cc1OC | 23 | 27
Cc1cc(C)cc(COc2coc(CN3CCN(S(=O)(=O)c4c(F)cccc4F)CC3)cc2=O)c1 | 22 | 6
CN(C(=O)CN1C(=O)NC(C)(C2CC2)C1=O)C1CCS(=O)(=O)C1 (centres undefined) | 0 | 31
N[C@@H]1c2ccccc2C2(CCN(C(=O)c3cccnc3)CC2)[C@H]1O | 1 | 0
CC(c1ccon1)N(C)C(=O)c1cc(-c2ccncc2)nc2ccccc12 (centres undefined) | -1 | -1
Cc1cc(C)nc(SCCCn2c(N3CCCC3)nc3c2c(=O)[nH]c(=O)n3C)n1 | 3 | -5
Cc1ccc(C2(O)CCN(C(=O)C(=O)c3ccco3)CC2)nc1 | 2 | 0
O=C(Nc1ccc(F)cc1F)N1CCN(c2nc(-c3cccnc3)nc3ccccc23)CC1 | 16 | 9
COP1(=S)C(=C2N(C)c3ccccc3C2(C)C)C=Nc2c1c(C)nn2-c1ccccc1 (centres undefined) | 6 | 4
O=C(O)C1CCCN(c2nc(Cc3ccc(Cl)cc3)ns2)C1 (centres undefined) | -4 | 9
Cc1cccc(CN2CCCC(CNC(=O)c3ccc(-c4ccccc4)cc3)C2)n1 (centres undefined) | 13 | 6
O=C(NC1(C(F)(F)F)C(=O)Nc2c1c(=O)[nH]c(=S)n2CCc1ccccc1)c1ccccc1 (centres undefined) | -9 | -16
O=C(CN1C(=O)NC2(CCCCC2)C1=O)NCCCCc1ccccc1 | 21 | 13
CC(C)NC(=O)NCCc1ccc(NC(=O)c2cccc(SC(F)F)c2)cc1 | -6 | -10
CNc1nc2cnc(Nc3cccc(Cl)c3)cc2n1-c1ccccc1 | 13 | 0
CCOc1c(C)cnc2c1c(=O)n(CC(=O)OC)c(=O)n2C | 4 | 4
Cc1nn(S(=O)(=O)N(C)C)c(C)c1C | 1 | 8
CN(C(=O)NC1(C)CCS(=O)(=O)C1)C1(C)CCS(=O)(=O)C1 (centres undefined) | 11 | 8
CC1(C)Cc2cccc(Oc3nc4ccccc4o3)c2O1 | -4 | -5
CC(C)(C)c1ccc2oc(=O)n(C3CCN(C(=O)c4ccc5nonc5c4)CC3)c2c1 | 5 | 1
COc1ccc(N2CC(NC(=O)NN3CCOCC3)CC2=O)cc1 (centres undefined) | -2 | 5
CCc1nc(N(CCC(=O)NCc2cccc(C(F)(F)F)c2)C(C)C)c2ccc(Cl)cc2n1 | 4 | 6
CCc1ccccc1NC(=O)N1CCN(c2cc(Oc3ccc(C)cc3OC)ncn2)CC1 | 16 | 15
COCC(=O)N1CCC2(CC1)NC(=O)c1cccc(C)c1N2 | -5 | 0
COC(=O)c1c2c(nc3c1c(C)nn3C1CCS(=O)(=O)C1)CCC2 (centres undefined) | 10 | 7
COc1cccc(COc2coc(CN3CCCN(C(=O)c4ccc(C#N)cc4)CC3)cc2=O)c1 | 31 | 34
COc1ccc(N2CCN(S(=O)(=O)c3ccc(Cl)cc3)C(C)C2=O)cc1 (centres undefined) | 8 | 6
CCc1ccc(C2N3CC4(C)CN2CC(C)(C3)C4O)cc1 (centres undefined) | 0 | 0
O=C(Nc1cccc([N+](=O)[O-])c1)Oc1ccccc1 | 13 | 5
Cc1nn2c3ccccc3nc2c2ccccc12 | -1 | 5
Cc1c(N2CCOCC2)c(C)n(Cc2ccc(F)cc2)c1C(=O)Nc1ccc(C(C)C)cc1 | 25 | 20
CCN1CCc2cc(OC)c(OC)cc2C1C(NC(=O)c1ccc(Cl)cc1)C(C)C (centres undefined) | -3 | -1
COc1cc2c(cc1O)C(=O)CC1C(C)(C)C(=O)CCC21C (centres undefined) | -8 | -18
O=C(C(O)c1ccccc1)N1N=C(c2ccccc2)CC1(O)C(F)(F)F (centres undefined) | 2 | 1
COc1ccccc1C(=O)N1CCC(C(NC(=O)c2ccccc2Cl)C(=O)NCC(C)C)CC1 (centres undefined) | -1 | 2
O=C1COc2ccc(S(=O)(=O)N3CCCC3c3ccccn3)cc2N1 (centres undefined) | 14 | 11
Cc1cccc(CN(CC(O)COc2ccccc2)C2CC2)c1 (centres undefined) | 24 | 25
COc1ccc(-n2c(=O)c(C)nc3ccccc32)cc1 | 3 | 2
O=C(c1cc(F)c(F)c(F)c1F)N1CCOC(COc2ccc3c(c2)CCCC3)C1 (centres undefined) | 28 | 32
COc1ccc(CCCNC(=O)C2Cc3c(-c4ccc5c(c4)OCO5)ccnc3O2)cc1 (centres undefined) | -3 | -5
Cc1occc1CN(C)C(=O)C1CCCN1C(=O)NC1CCCCC1 (centres undefined) | 1 | 11
NC(=NCCC1CCCO1)N1CCN(c2nccs2)CC1 (centres undefined) | 22 | 20
CC(C)[C@H]1CC[C@H](C)C[C@@H]1OCC(=O)NCCSC1Sc2ccccc2NC1=O (some centres undefined) | -5 | -14

Random excerpt: 7 records from the list
SMILES | NPYLR7 agonist | NPYLR7 agonist max-min
COc1ccc(-n2c(=O)c(C)nc3ccccc32)cc1 | 3 | 2
CCN1CCc2cc(OC)c(OC)cc2C1C(NC(=O)c1ccc(Cl)cc1)C(C)C (centres undefined) | -3 | -1
Cc1cccc(CN(CC(O)COc2ccccc2)C2CC2)c1 (centres undefined) | 24 | 25
NC(=NCCC1CCCO1)N1CCN(c2nccs2)CC1 (centres undefined) | 22 | 20
O=C1COc2ccc(S(=O)(=O)N3CCCC3c3ccccn3)cc2N1 (centres undefined) | 14 | 11
COc1ccccc1C(=O)N1CCC(C(NC(=O)c2ccccc2Cl)C(=O)NCC(C)C)CC1 (centres undefined) | -1 | 2
O=C(C(O)c1ccccc1)N1N=C(c2ccccc2)CC1(O)C(F)(F)F (centres undefined) | 2 | 1

Continuation.
SMILES | NPYLR7 agonist | NPYLR7 agonist max-min
N#Cc1ccc(CN2Cc3ccccc3CC2C(N)=O)c(F)c1 (centres undefined) | 14 | 11
COc1cccc(Nc2ncnc3[nH]ncc23)c1 | 20 | 24
COc1cccc(Cn2nc(C)c3c(NC(=O)C(C)OC)[nH]nc32)c1 (centres undefined) | 1 | -2
COCC(=O)N1CCCC(OCCOc2ccccc2)C1 (centres undefined) | 5 | 11
CC(C)COc1nc(-c2ccccc2F)n(-c2ccc(N)cc2)n1 | -3 | -17
CC1CCc2c(sc3nc(SCC(=O)N(C)C)n(-c4ccccc4)c(=O)c23)C1 (centres undefined) | 1 | -5
Cc1ccccc1C(=O)Nc1ccnn1C1CCN(C(=O)CCc2c(C)noc2C)CC1 | 10&11 | 5&4
Cc1nn(Cc2ccc(C(=O)Nc3cc(C(F)(F)F)ccc3F)o2)c(C)c1[N+](=O)[O-] | 11 | 7
CCN(CC)/C(=C/C#N)c1ccc(F)cc1 | -6 | -7
NC(=O)C1CCN(c2csc3ccccc3c2=O)CC1 | 3 | 0
COc1cccc(CSc2nnc(CNC(=O)COc3ccc(Cl)cc3)n2-c2ccc(Cl)cc2Cl)c1 | -5 | -3
CS(=O)(=O)NCCCn1nc(-c2ccccc2)ccc1=O | -1 | -1
Brc1ccc(-c2cn3ccccc3n2)cc1 | 2 | 2
CCOC(=O)N1CCN(C(=O)c2csc(CSc3nnc(-c4ccccc4Cl)n3-c3ccccc3F)n2)CC1 | -13 | -5
CC(NC(=O)c1ccc(S(=O)(=O)N(C)C)cc1)C(=O)O (centres undefined) | 2 | 1

Quoted from the listing:
Result of CCOC(=O)[C@@H]1CSC2(CCN(C(=O)C3(c4ccccc4)CC3)CC2)N1 in NPYLR7 agonist: 0
Result of CCc1ccc(C2N3CC4(C)CN2CC(C)(C3)C4O)cc1 (centres undefined) in NPYLR7 agonist: 0

Later entries
SMILES | NPYLR7 agonist | NPYLR7 agonist max-min
COC(=O)C1=C(C)NC(=O)NC1c1ccc(N(C)C)cc1 (centres undefined) | 11 | 12
Nc1ccc(S(=O)(=O)NCC(F)(F)F)cc1 | 5 | 3
O=C(O)C1CCCOC1c1ccccc1 (centres undefined) | 13 | 3
COc1ccc(F)cc1CN1CC[C@@](C)(O)[C@@H](Cc2ccccc2)C1 | 6 | 3
CC(C)C(NC(=O)Cc1ccccc1)C(=O)NCc1ccc2c(c1)CCS2(=O)=O (centres undefined) | 5 | 2
CCN(CC)S(=O)(=O)c1ccc(N2CCCCC2)c(NC(=O)COC(=O)C2CCCCC2)c1 | 0 | 3
CCc1ccc(C(=O)Nc2ccc(N3CCN(c4ccccc4OC)CC3)c(C(=O)NC3CCCCC3)c2)cc1 | 19 | 14
Cc1cc(C(=O)N2CCOC(COc3ccccc3)C2)no1 (centres undefined) | 9 | 12
Cc1ccc(Cn2ncc3c(N4CCN(CCOc5ccc(C)cc5)CC4)ncnc32)cc1 | 0 | -2
O=C(CCC1CCN(C(=O)c2ccc(F)cc2)CC1)N1CCC(Cc2ccccc2)CC1 | 13 | 4
CC(C)n1cc(C(=O)NCC2CCCCC2)c(=O)c(C(=O)N2CCN(C(=O)c3cccs3)CC2)c1 | 11 | -4
Cc1cccc(OC2CCN(Cc3ccc(S(C)(=O)=O)cc3)CC2)c1 | -1 | 14
CC(=O)Nc1cccc(C(=O)OCC(=O)c2ccco2)c1 | -6 | -10
CNC(=O)c1sc2nc(-c3cccc(Oc4ccccc4)c3)[nH]c(=O)c2c1C | 5 | 1
O=C(O)CN1C(=O)/C(=C\c2cc(Br)ccc2O)SC1=S | -5 | -5
O=c1[nH]c(CN2CCC3(CC2)OCCO3)nc2ccc(Cl)cc12 | 8 | 2
COCCN(CC(=O)N(CCc1c[nH]c2ccccc12)Cc1ccccc1OC)C(=O)c1ccc([N+](=O)[O-])cc1 | -4 | 5
COc1ccc(OC)c(-c2ccc(SC)nn2)c1 | -1 | -4

An excerpt from further up, as a working copy:
SMILES | NPYLR7 agonist | NPYLR7 agonist max-min
O=C(O)CN1C(=O)/C(=C\c2cc(Br)ccc2O)SC1=S | -5 | -5
O=c1[nH]c(CN2CCC3(CC2)OCCO3)nc2ccc(Cl)cc12 | 8 | 2
COCCN(CC(=O)N(CCc1c[nH]c2ccccc12)Cc1ccccc1OC)C(=O)c1ccc([N+](=O)[O-])cc1 | -4 | 5
COc1ccc(OC)c(-c2ccc(SC)nn2)c1 | -1 | -4

Only part of the results is shown, so the mix of outcomes need not match the whole.
